High-throughput results (PubChem BioAssay)
NPYLR7 ag: activates Aedes aegypti NPYLR7 receptor; HEK293T NPYLR7/Galpha15, GCaMP6s calcium fluorescence; activation, % at 10 µM; 270,000 tested, 0.15% active; in the data active = activation above about 40%;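 also: 0% = vehicle and 100% = reference agonist at the receptor; some compounds past the cut are filed as inactive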
NPYLR7 ag max-min: second read-out of NPYLR7 ag, no call of its own (marks repeat the call); activation, %; measured here: Max-Min RFU normalised activation; some inactives read as strong as hits;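 span of the calcium signal over five minutes; 0% = vehicle and 100% = native peptide agonist; compound fluorescence can raise it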
* = called active by the depositor; & = joins results of further samples. This is a subset; the hit share may differ from the screen's.

SMILES | NPYLR7 ag | NPYLR7 ag max-min
CCCCc1ccc(C(=O)N2CCN(C(=O)CCN3CCc4sccc4C3c3cccc(F)c3)CC2)cc1 (stereo not drawn) | 8 | -3
O=C(CCCc1nc(-c2ccncc2)no1)N1CCCC2(CCNCC2)CC1 | 1 | 0
COCc1cn(C2CCN(C(=O)Nc3c(F)cccc3F)CC2)nn1 | 3 | 1
CSc1ccc(C(=O)C2CCCN(C(=O)CCCn3cncn3)C2)cc1 (stereo not drawn) | 20 | 3
c1ccc(CCc2noc(CN3CCN(c4nc5ccccc5s4)CC3)n2)cc1 | -1 | -6
O=C(c1ccc([N+](=O)[O-])cc1)N1CCCN(c2nc(Cc3ccccc3)nc3onc(-c4ccccc4)c23)CC1 | 22 | 27
O=C(CSc1ncccn1)NCC1Cc2cc(-c3ccsc3)cc(Cl)c2O1 (stereo not drawn) | 25 | 18
Cc1ccc(-c2nn3c(=O)c(C)nnc3s2)cc1 | 23 | 11
CCN(CC)c1ccc2cc(C(N)=O)c(=Nc3cccc(C(C)=O)c3)oc2c1 | -5 | -8
C#CCNC(=O)CNC(c1ccc(F)cc1)c1ccc(OC)cc1 (stereo not drawn) | 7 | 4
COCc1cc(N2CCCCC2C)nc(SCc2cccc(C(=O)NCc3ccccc3)c2)n1 (stereo not drawn) | 4 | 13
C/C(=C/C(=O)N(C)C1(C#N)CCC1)C12CC3CC(CC(C3)C1)C2 | 0 | -4
COc1ccc(-c2cccc(-c3ccc(NC(=O)C(F)(F)C(F)(F)C(F)(F)F)cc3)n2)cc1 | 21 | 24
COc1ccc(C(=O)NC2CCC(NC(=O)[C@H]3CCCN3C(=O)c3cccc(Cl)c3)CC2)cc1 (stereo partly drawn) | 15 | 10
COc1ccc(CNC(=O)c2sc(=O)n(Cc3ccc(-c4ccccc4)cc3)c2C)cc1OC | 8 | 1
CC(=O)O[C@@H](C)C(=O)Nc1cccc(-c2cccc(-c3ccc(F)cc3)n2)c1 | -2 | -2
CNc1nc(-c2ccc(N(C)S(C)(=O)=O)cc2)cs1 | 3 | 2
CC(C)(C)C(NCn1nc2ccccn2c1=S)c1cccs1 (stereo not drawn) | 8 | 6
O=C(NCC(c1ccc(F)cc1)N1CCOCC1)N1CCN(Cc2ccc(Cl)cc2)CC1 (stereo not drawn) | -7 | -8
CC(C)c1cc(C2CCN(C(=O)Cc3c[nH]c4ccccc34)CC2)[nH]n1 | 3 | 0

Brought forward from above: 2 compounds, followed by the next part.
SMILES | NPYLR7 ag | NPYLR7 ag max-min
O=C(NCC(c1ccc(F)cc1)N1CCOCC1)N1CCN(Cc2ccc(Cl)cc2)CC1 (stereo not drawn) | -7 | -8
CC(C)c1cc(C2CCN(C(=O)Cc3c[nH]c4ccccc34)CC2)[nH]n1 | 3 | 0
Cn1nnnc1SCC(=O)N1CCNC1=O | 3 | 3
Cc1ccc(OC2CCN(Cc3ccncc3)CC2)c(C(=O)N2CCSCC2)c1 | 6 | 4
Cc1cc(C)[n+](Cc2ccccc2)o1 | -2 | 3
CCc1nc2ccc(C(=O)NCCc3ccccn3)cn2c1N(C)C=O | 4 | 31
Cc1ccc(C)c(C(NC(=O)c2scnc2C)c2cccnc2)c1 (stereo not drawn) | -2 | -9
CC(C)C(=O)NC(=O)COC(=O)c1ccccc1Oc1ccccc1 | 7 | 4
COc1ccc(C(C2Sc3nc(C)nn3C2=O)N2CCN(Cc3ccccc3)CC2)cc1OC (stereo not drawn) | 6 | 1
C=c1onc(-c2ccccc2)c1=c1[nH]/c(=C/C(Cl)=C/c2ccccc2)c(=O)o1 | 0 | -6
COc1ccc(-c2cc(CN)no2)cc1 | 4 | 1
CCC(=O)Nc1c(-c2ccc(OC)c(OC)c2)nc2ccc(C)cn12 | -3 | 1
O=P1(N2CCCCC2)C=C(c2ccccc2)OC(c2ccccc2)=C1 | -1 | -3
Cc1cccc(C(=O)N2CCN(c3ccc4c(c3)CCC4)C(=O)C2C)c1 (stereo not drawn) | 0 | 3
CNc1cncc(-c2ccc(OCCCN(C)C)nc2)n1 | 3 | 5
CC1C(c2ccccc2)N(C)C(c2ccccc2)CC1(O)c1ccccc1 (stereo not drawn) | -20 | -27
CN(C)c1nc2c(c(N(C)C)n1)CCN(C(=O)CCCc1cn[nH]c1)C2 | 2 | 1
COc1ccc(CN(CCN2CCOCC2)Cc2ccc(C(O)(c3cccc(F)c3)c3cccc(F)c3)o2)cc1OC | -2 | -4
O=C(c1nc2ccc(Cl)cn2c1CN1CC=CC1CO)N1CCCCCCC1 (stereo not drawn) | 6 | 5
CC(SC(F)(F)F)C(=O)Nc1ccc(C#N)cc1 (stereo not drawn) | -4 | -5
COC(=O)CC1CC(=O)C2=C(O)c3c(OC)ccc(Br)c3C2C1 (stereo not drawn) | -1 | 34
COc1ccc(S(=O)(=O)N2CCN(C(=O)CN3c4ccccc4CCC3C)CC2)cc1 (stereo not drawn) | 0 | -2
CCC(C)NCc1c(-c2ccc(F)cc2)noc1N1CCOCC1 (stereo not drawn) | 11 | 19
O=C(C1=C(O)C(=O)N(CCN2CCOCC2)C1c1ccc(Cl)cc1)c1cccs1 (stereo not drawn) | 8 | 11
Cc1ccc(Nc2c(C)c(C)nc3c(-c4ccccc4)cnn23)cc1 | -4 | -6
COc1c(C(=O)OC(C)c2ccc(C#N)cc2)c(C)nn1C (stereo not drawn) | 7 | 6
Nc1ncnc(Nc2ccc(F)cc2Cl)c1[N+](=O)[O-] | -10 | -11
c1ccc2oc(SCc3csc(Cc4ccc5c(c4)OCO5)n3)nc2c1 | 4 | 15
Cc1ccc([N+](=O)[O-])cc1N=Nc1c(C)[nH]n(-c2nc(-c3ccc(Br)cc3)cs2)c1=O | -5 | -10
Cc1ccc(C)c(C=CC(=O)c2ccc(O)cc2)c1 | 13 | 8
COc1nc(-c2ccc(C(F)(F)F)cc2)n(-c2ccc(NC(=O)c3cccs3)cc2)n1 | 3 | 11
Cn1cccc1C(=O)Nc1cccc(CN2CCCC2=O)c1 | 1 | 1
O=C(c1ccc(Nc2nc(-c3ccccc3)c3cc(Cl)ccc3n2)cc1)N1N=C(c2ccc(Br)cc2)CC1c1ccc(F)cc1 (stereo not drawn) | 10 | 12
Cc1cc(NCC(C)C)n2nc(C)c(-c3ccccc3Cl)c2n1 | -4 | -4
CCCCC(=O)N1CCN(c2cc(Cl)nc(SCC(=O)NCc3ccncc3)n2)CC1C (stereo not drawn) | -2 | 0
CC1=CC(=C(C#N)C#N)C=C(C)N1c1ccc(I)cc1 | 19 | 18
Cc1ccc(-n2c(SCC(=O)N3CCc4ccccc43)nc3c(c2=O)SCC3)cc1 | 0 | -3
Cc1cnc(CN(C)C(=O)CCC(=O)NC2CCCC2)[nH]1 | -18 | -21
N#Cc1cccc(C(=O)N2CCN(c3nccc(-c4cccs4)n3)CC2)c1 | 22 | 23
COCc1[nH]n(-c2ccc(Cl)c(Cl)c2)c(=O)c1C1=C(N2CCN(C)CC2)C(=O)N(Cc2ccco2)C1=O | 3 | 6
CCn1nccc1NC(=O)c1cc(Br)ccc1I | -4 | -4
CCOCCN1CCN(C(C)C(=O)Nc2ncccn2)CC1C (stereo not drawn) | 5 | 4

Rewritten field by field: part of the list above.
> O=C(CSc1ncccn1)NCC1Cc2cc(-c3ccsc3)cc(Cl)c2O1 (stereo not drawn)
  NPYLR7 ag: 25	NPYLR7 ag max-min: 18

> Cc1ccc([N+](=O)[O-])cc1N=Nc1c(C)[nH]n(-c2nc(-c3ccc(Br)cc3)cs2)c1=O
  NPYLR7 ag: -5	NPYLR7 ag max-min: -10

Next section
SMILES | NPYLR7 ag | NPYLR7 ag max-min
Cc1ccccc1NC(=O)c1cc(S(=O)(=O)Nc2ccccc2)ccc1Cl | 2 | 2
O=C(NC1CCN(c2ncccn2)CC1)c1ccc(Cl)s1 | 0 | -3
O=C(CN1CCC(C(F)(F)F)(C(F)(F)F)C1)N1CCOCC1 | 3 | 0
N#CC(C(=O)C12CC3CC(CC(Cl)(C3)C1)C2)c1ccccn1 (stereo not drawn) | 7 | 2
O=C(c1ccc(OCc2cscn2)cc1)N1CCN(CCO)CC1 | 8 | 3
CCc1nn(CCCC(=O)NC(C)CCc2ccco2)c(=O)c2cc3occc3n12 (stereo not drawn) | 4 | 2
CCN(CC)C(=O)Oc1ccc2c(ccn2Cc2cccc(OC)c2)c1-c1ccc(OC)cc1 | 5 | 3
Clc1ccc(-c2noc(CCC3CCCCC3)n2)cc1 | -2 | -4
CC(=O)OC(C(=O)N(Cc1ccco1)Cc1nc2cc(Cl)ccc2o1)c1ccccc1 (stereo not drawn) | 0 | 30
COCCCN(CC(=O)N(Cc1ccc(F)cc1)Cc1sccc1C)C(=O)C(Cl)c1ccccc1 (stereo not drawn) | -10 | -18
CCc1nc2oc3cc(OC)ccc3c(=O)c2c(=O)n1-c1ccc(C)cc1 | 4 | 0
CN(C)c1nc(-c2ccccc2)c(/C=N\NC(N)=S)c(=O)o1 | -3 | 13
Cc1nc(C)n(CC(O)COc2ccc(-c3ccccc3)cc2)n1 (stereo not drawn) | -6 | -11
COC(=O)C1CCN(C(=O)CN(C2CC2)C2CCc3ccccc32)CC1 (stereo not drawn) | -7 | -9
CCOc1cccc(C(=O)Nc2nnc(-c3ccco3)s2)c1 | -4 | -11
CCOC(=O)N1CCN(C(=O)c2cn(C)cc3c(=O)n(-c4ccccc4)nc2-3)CC1 | 6 | 5
COc1ccccc1N1CCN(c2cc(Oc3ccc(F)cc3C)ncn2)CC1 | 3 | 5
CCC1SC(c2ccc(OC)c(OC)c2)N(CCNC)C1=O (stereo not drawn) | 0 | -7
COc1ccc(N2C(=O)CSC2c2cccc(NC(=O)c3ccc(Cl)c([N+](=O)[O-])c3)c2)cc1 (stereo not drawn) | -10 | 2
Cc1cc(C)cc(C(=O)NC(=S)c2c(C)nc3sccn23)c1 | 1 | -5

Five records drawn at random from those above, as already listed:
SMILES | NPYLR7 ag | NPYLR7 ag max-min
CCN(CC)C(=O)Oc1ccc2c(ccn2Cc2cccc(OC)c2)c1-c1ccc(OC)cc1 | 5 | 3
CN(C)c1nc(-c2ccccc2)c(/C=N\NC(N)=S)c(=O)o1 | -3 | 13
O=C(c1ccc(OCc2cscn2)cc1)N1CCN(CCO)CC1 | 8 | 3
CCc1nn(CCCC(=O)NC(C)CCc2ccco2)c(=O)c2cc3occc3n12 (stereo not drawn) | 4 | 2
COC(=O)C1CCN(C(=O)CN(C2CC2)C2CCc3ccccc32)CC1 (stereo not drawn) | -7 | -9

Remaining list, next part
SMILES | NPYLR7 ag | NPYLR7 ag max-min
c1ccc(-c2nc(Cc3nc(C4CC4)n[nH]3)cs2)cc1 | 13 | -1
Cc1ccccc1C(=O)N[C@@H]1CCCCC1NC(=O)C1CCCN(S(=O)(=O)/C=C/c2ccccc2)C1 (stereo partly drawn) | 0 | 3
COc1ccc(-c2cnc(-c3cccc(CNC(=O)c4cc(F)ccc4F)c3)[nH]2)cc1 | 2 | 10
Cc1ncc([N+](=O)[O-])n1S(=O)(=O)c1ccc(F)cc1 | 13 | 10
Cc1ccc(OCCN2CCC2(C)C(=O)Nc2ccccc2F)cc1 (stereo not drawn) | 7 | 3
CC(C)(C)c1cc(NC(=O)CN(Cc2ccco2)C(=O)C2C[C@H]2c2ccccc2)n(-c2ccc(Cl)c(Cl)c2)n1 (stereo partly drawn) | -8 | -12
CCCN1CCN(Cn2nccc2-c2ccncc2)CC1 | 2 | 1
CCOC(=O)c1nc2ccccc2nc1N1CCCN(C(=O)c2cccs2)CC1 | 3 | -3
Cn1cc(Br)c(C(=O)n2cc(Br)cn2)n1 | 7 | 3
CN1CCN(Cc2nc3c(c(=O)n(C)c(=O)n3C)n2Cc2ccc(F)cc2)CC1 | 4 | 38
Cc1cc(O)c(CN2CCN(C)CC2)c2c1C(=O)/C(=C/c1ccncc1)O2 | 26 | 22
COCCOC1CCN(Cc2nc(-c3cccc(Cl)c3)no2)CC1 | 4&-1 | 2&-5
CO[C@H]1CN(c2nnnn2-c2ccc(Oc3ccccc3)cc2)CC[C@H]1N | 28 | 21
CCCC1CCCN(C(=O)c2cc3ccc(OC)cc3[nH]2)CC1 (stereo not drawn) | 0 | 0
Cc1ccc(Nc2nc(N3CCOCC3)nc3c2cnn3-c2ccccc2)cc1 | 0 | -1
CC(=O)c1ccc(N2C[C@@H]3C4CCC(CC4)[C@@H]3C2)nc1 | 8 | -2
N#CC1(C(=O)NC2CCCC2)CCCC1 | 3 | 1
CCNC(=O)N1CCC2(CC1)N=C(COC)NC2=O | 1 | 2
CC12CN3CC(C)(CN(C1)C3c1ccc3ccccc3c1O)C2=O (stereo not drawn) | -9 | -14
COc1ccccc1-c1cc(C(=O)NCc2ccccc2)n2nc(C(C)(C)C)cc2n1 | -8 | -4
CCCCc1ccc(NC(=O)c2cn(C)c3c(=O)n(Cc4ccccc4)c(=O)[nH]c23)cc1 | 4 | 2
CC(C)(C)C(C#N)NS(=O)(=O)c1cccc(Cl)c1 (stereo not drawn) | -1 | -3
CCOC(=O)CC(C)NC(=S)NCCCN(C)c1ccccc1 (stereo not drawn) | -6 | -14
O=c1cc(Sc2nc3ccccc3[nH]2)c2ccccc2o1 | 9 | 20
COc1ccc(S(=O)(=O)NCC2CCCN(C(=O)CCOc3ccccc3)C2)cc1 (stereo not drawn) | 4 | 1
CCN(C1=NC2CS(=O)(=O)CC2S1)c1cc(C)cc(C)c1 (stereo not drawn) | 4 | 1
CCCNC(=O)c1cc(NC(=O)Nc2cc(OC)cc(OC)c2)ccc1N1CCN(c2ccccc2OC)CC1 | 20 | 19
O=C(Cc1ccccc1)N1CC(=O)N(Cc2ccco2)CC(O)C1 (stereo not drawn) | 1 | 5
COC(=O)c1cc2n(n1)CCN(C(=O)c1ccc(C3CCCO3)s1)C2 (stereo not drawn) | 27 | 23

Record cards, from the list above. Order of values: NPYLR7 ag, NPYLR7 ag max-min
CO[C@H]1CN(c2nnnn2-c2ccc(Oc3ccccc3)cc2)CC[C@H]1N is listed as 28, 21
N#CC(C(=O)C12CC3CC(CC(Cl)(C3)C1)C2)c1ccccn1 (stereo not drawn) is listed as 7, 2
